Bioassay records deposited in PubChem by ICCB-Longwood Screening Facility, Harvard Medical School.
Bm FixLJ act = increases Burkholderia fixLJ two-component signaling. B. multivorans fixK-promoter GFP reporter, 18 h; stronger effect = higher value. z-score (concentration not given with the values). 29,000 tested, 0.3% active. AID 1918990;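 active = replicate mean overnight rise in green fluorescent reporter signal, 3 or more SD over negative controls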;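 note: score is relative to vehicle wells of the plate; 300 nL library stock went into each well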
* hit, by the source's call. Only part of the results is shown; count on the stated rates, not on these rows.

smiles	Bm FixLJ act
O=C(Nc1cccc(Cl)c1)c1cc2c(=O)[nH]c3ccccc3c2s1	-0.45
COc1ccccc1CCNC(=O)c1ccc(NC(=O)N2CC(C)Sc3ccccc32)cc1 (stereo not given)	-1.65
COCCCn1c(=N)c(C(=O)NC2CCCCC2)cc2c(=O)n3cc(C)ccc3nc21	-2.03
Cc1cc(C)c2[nH]c(C)c(CC(=O)N(C)CCCn3cccn3)c2c1	0.74
Cc1cc2c(cc1C(=O)N(Cc1ccccn1)CC1CCCO1)OCCO2 (stereo not given)	1.53
Cc1cccc(-c2nnc(SCCC(=O)O)o2)c1	-2.23
COc1ccc(CN2C(=O)c3oc4ccccc4c(=O)c3C2c2ccc(O)cc2)cc1 (stereo not given)	-0.47
Cc1cc(C(=O)O)nc(N2CCN(c3ncnc(C)c3C)CC2)n1	1.81
CCCOCC(=O)Nc1ccc(NC(=O)CN2CCCCC2)cc1	0.4
Cc1c(NC(=O)CCCn2cncn2)cccc1C(=O)NC(C)(C)C	-0.2
Cc1noc(C)c1CN1C(=O)C2CCC1CN(Cc1ccccn1)C2 (stereo not given)	-2.29
COc1cc(NC(=O)c2ccc3oc(=O)c(S(=O)(=O)c4ccccc4)cc3c2)cc(OC)c1	0.65
COc1ccccc1NC(=O)Cn1c(=O)n(Cc2ccccc2)c(=O)c2c3c(sc21)CN(C(C)=O)CC3	-0.49
Cn1cncc1C(=O)NC1CCN(C(=O)C2CCCC2)CC1	-1.03
Cc1ccn(CCC(=O)N2CCCN(Cc3cc4ccccc4o3)CC2)n1	-0.91
O=C(Cn1ncc2ccccc21)NC1CCN(Cc2cccnc2)CC1O (stereo not given)	1.09

Arranged by heavy-atom count (highest first): 7 of the compounds above
smiles	Bm FixLJ act
COc1cc(NC(=O)c2ccc3oc(=O)c(S(=O)(=O)c4ccccc4)cc3c2)cc(OC)c1	0.65
COc1ccc(CN2C(=O)c3oc4ccccc4c(=O)c3C2c2ccc(O)cc2)cc1 (stereo not given)	-0.47
Cc1ccn(CCC(=O)N2CCCN(Cc3cc4ccccc4o3)CC2)n1	-0.91
Cc1noc(C)c1CN1C(=O)C2CCC1CN(Cc1ccccn1)C2 (stereo not given)	-2.29
O=C(Nc1cccc(Cl)c1)c1cc2c(=O)[nH]c3ccccc3c2s1	-0.45
Cn1cncc1C(=O)NC1CCN(C(=O)C2CCCC2)CC1	-1.03
Cc1cccc(-c2nnc(SCCC(=O)O)o2)c1	-2.23

The results go on.
smiles	Bm FixLJ act
CC(C)(C)C(=O)C(Oc1ccc(Cl)cc1)n1ccnc1 (stereo not given)	-0.34
CCCS(=O)(=O)c1nc(S(=O)(=O)c2ccc(C)cc2)c(N(CC)CC)s1	1.97
CCCN1C(=O)c2[nH]nc(-c3ccccc3O)c2C1c1cccc(OCc2ccccc2)c1 (stereo not given)	0.56
CCOC(=O)C1=C(CS(=O)(=O)c2ccc(F)c(C)c2)NC(=O)NC1c1ccccc1OC (stereo not given)	-0.06
CCN(CC)C(=O)Cn1c(=O)n(Cc2ccc(C(=O)NCCc3ccc(OC)c(OC)c3)cc2)c(=O)c2ccccc21	-2.16
CCN1CCOC(=O)C1CC(=O)Nc1cc(C)cc(C)c1 (stereo not given)	0.02
CCC(=O)N1CCc2cc(S(=O)(=O)CCC(=O)N3CCN(c4cccc(Cl)c4)CC3)ccc21	-2.06
COc1ccc(C(F)(F)F)cc1NC(=O)c1sc2nc(-c3cccs3)ccc2c1N	-0.97
Nc1c(C(=O)Nc2cccc(F)c2)sc2nc(-c3cccs3)ccc12	-0.92
Cc1cccc(C(=O)NC2(C(F)(F)F)N=C(c3ccccc3)N(Cc3ccccc3)C2=O)c1 (stereo not given)	-0.9
Cc1ccc(Cl)c(-c2ccc(C(=O)N3CCC(O)(CO)CC3)cc2)c1	-0.42
COc1ccccc1N(CC(=O)Nc1cc(C)cc(C)c1)S(C)(=O)=O	-0.93
Cc1cnc(CN2CCC(N3CC(COc4ccc(F)cc4)OCC3=O)CC2)cn1 (stereo not given)	-0.48
COc1ccccc1NC(=O)CSc1oc(-c2ccccc2)nc1S(=O)(=O)c1ccc(C)cc1	0.95
COc1ccc(N(C(=O)c2ccccc2C)S(=O)(=O)c2ccc(C)cc2)cc1	0.88
CCc1nn(CC(=O)Nc2ccc(N(CC)CC)cc2C)c(=O)c2cc3sccc3n12	-0.14
COc1ccc(CCNC(=O)c2cnc3sc(N4CCOCC4)nn3c2=O)cc1	-0.39
Cc1ccc(NC(=O)c2c(C)oc3ccc(O)c(CN4CCCCC4)c23)c(C)c1	-1.21
Cn1ccc(NC(=O)CN2CC(c3ccc(F)cc3)C3C2C2CCN3CC2)n1 (stereo not given)	-2.6
CCNc1c(NC(=O)c2ccccc2OCC)c(=O)oc2ccccc12	-1.05
CCCn1ccnc1CNC(=O)C1CCCN(c2ccccn2)C1 (stereo not given)	-0.08
CCCSCCCNC(=O)CN1C(=O)COc2ccc(S(=O)(=O)N3CCCCCC3)cc21	-1.94
COc1ccccc1Nc1cc(C(=O)NC2CCC(C)CC2)c2ccccc2n1 (stereo not given)	0.09
COCCCNC(=O)c1cc2c(-c3cccc(OC)c3)nn(C)c2s1	-0.41
CCc1ccc(C2c3c(oc4ccc(F)cc4c3=O)C(=O)N2c2nc(C)c(C(=O)OC)s2)cc1 (stereo not given)	-1.24
COc1cccc(Oc2ccc(NC(=O)C(N)c3ccccc3)cn2)c1 (stereo not given)	0.63
CCc1cccc(OC2CN(C(=O)NCc3ccc4c(c3)nc(C)n4C)C2)c1	1.18
CCC(=O)OCCCNc1nc(-c2ccc(Cl)cc2)nc2ccccc12	-2.24
COc1c(C)cc(Br)cc1C(=O)Nc1ccc(-c2nc3ncccc3o2)cc1	-2.28
Cc1ccc(Cl)cc1NC(=O)Cn1cc2c(n1)CCCCC2	-0.86
CCCC1=Nc2cc(C(=O)N3CCC(C(=O)OCC)CC3)ccc2Sc2ccccc21	-1.46
COc1cccc(OC)c1CN1CCn2nc(CNC(=O)N(C)C)cc2C1	-1.26
O=C(NCc1csc(N2CCCC2)n1)c1onc2ncccc12	-0.45
CSCc1ccc(C(=O)NCC2CCS(=O)(=O)CC2)o1	-0.56
CCc1ccc(-c2c(-c3ccccc3)ncn2CCN2CCNC2=O)o1	-1.01
Cc1ccc(Cn2c(=O)n(CCCCC(=O)NCc3ccccc3Cl)c(=O)c3ccccc32)cc1	-0.19
O=C(CSc1nc(-c2ccccc2)nc2c1CCCC2)c1ccc(Cl)cc1	-0.91
O=C1OC2(c3ccc(O)cc3Oc3cc(O)ccc32)c2ccccc21	-5.45
CCCOc1cccc(NC(=O)c2c(-c3ccccc3Cl)noc2C)c1	-4.78
CCOC(=O)Cc1ccc(NC(=O)Nc2c[nH]c(=O)[nH]c2=O)cc1	-0.64
C=CCOc1cc(Cl)c(CN2CCN(CCn3cncn3)CC2)cc1OC	1.03
CCC(C)c1ccc(OCC(=O)Nc2cccc(-c3nc4ncccc4o3)c2)cc1 (stereo not given)	-0.03
Cc1c2cnn(CC(=O)N3CCN(c4ccc(F)cc4)CC3)c(=O)c2c(C)n1Cc1ccccc1F	-0.33
COc1ccc(-n2c(=O)c3c4c(sc3n(Cc3cc(=O)n5c(C)cccc5n3)c2=O)CCC4)c(OC)c1	-1.42
O=C(NCCSc1c(-c2ccc(Cl)cc2)[nH]c2ccccc12)c1ccc(S(=O)(=O)N2CCOCC2)cc1	1.29
Cc1ccc(-c2nc3n(n2)C(=O)CC(c2ccc(Cl)cc2)S3)cc1 (stereo not given)	-0.03
Clc1cccc(N2CCN(c3ncnc4c3nc3n4CCCCC3)CC2)c1	0.07
Cc1ccc(-c2c3c(=O)n(C)c(=O)n(C)c3c3c(-c4cccc(C)c4)nc4ccccc4n23)cc1	-1.74
Cc1ccc(-c2nc3ncccc3o2)cc1NC(=O)c1ccc(-c2ccc(Cl)cc2)o1	-2.07
CC(C)C(NC(=O)c1ccc2nc(-c3ccccc3)cn2c1)C(N)=O (stereo not given)	-0.54
CC1(C)CN(C(=O)c2ccc(CSc3ccccn3)cc2)CC1(C)O (stereo not given)	-0.98
CCOc1ccc(OCC)c(NS(=O)(=O)c2cc(Br)cc3c2N(C(C)=O)C(C)C3)c1 (stereo not given)	0.18
CC(=O)Nc1ccc(NC(=O)CC2Sc3ccccc3NC2=O)cc1 (stereo not given)	0.87
CCn1cc(C(=O)NCCCOC(C)C)c(=O)c2cc(S(=O)(=O)N3CCOCC3)ccc21	0.25
COc1cc(-c2nc(-c3ccccc3)c(-c3ccc(Br)cc3)[nH]2)cc(OC)c1O	-0.9
CCOCCC(=O)N1CCC2(CC1)OCCc1c2[nH]c2ccccc12	-0.81

Further records.
Structure	Bm FixLJ act
Cc1ccccc1C(=O)Nc1ccnn1C1CCN(c2cc(N)ncn2)CC1	-1.67
O=C(CN1C(=O)COc2ccc(S(=O)(=O)N3CCCCCC3)cc21)N1CCN(c2cccc(Cl)c2)CC1	0.39
Cc1ccc(S(=O)(=O)c2nnn3c2nc(N2CCN(c4ccccc4F)CC2)c2cc(Cl)ccc23)cc1C	0.14
Cc1cccc(Cn2nnc3c(=O)[nH]c(C4CCCN(C(=O)c5ccc(C(C)(C)C)cc5)C4)nc32)c1 (stereo not given)	0.82
CCCOc1ccc(C(=O)Nc2cccc(-c3nc4ccccc4[nH]3)c2)cc1	0.95
Cc1ccc(Nc2ncnc3sc4c(c23)CCC(C)C4)cc1C (stereo not given)	-0.35
Cc1cc(C(=O)O)nc(N2CCCC(c3nc(CC(C)C)no3)C2)n1 (stereo not given)	-1.6
Cc1ccnc(CC(C)N(C)C(=O)Nc2c(C)ccc3nsnc23)c1 (stereo not given)	0.04
c1ccc(-c2nnc3n2CCN(Cc2cn(-c4ccccc4)nn2)CC3)cc1	-1.28
Cc1ccc(-n2c(-c3cccc(C)c3)nc3c(cnn3-c3ccccc3)c2=O)cc1	-0.45
CN(C)c1ccc(CNC(=O)CN(C)S(=O)(=O)c2ccc3c(c2)c(=O)n(C)c(=O)n3C)cc1	0.52
Cc1ccc(CNC(=O)CCc2c(C)nc3c(-c4ccc(F)cc4)c(C)nn3c2C)cc1	-0.75
O=S(=O)(Cc1ccccc1F)NCc1csc(-c2cnccn2)n1	-1.35
Cc1ccc(-c2nc3ccc(Cl)cn3c2Nc2ccccc2C)s1	-0.98
Cc1cccc(N2CCN(Cc3nnc(-c4ccc5c(c4)OCO5)o3)CC2)c1C	-0.44
COc1cccc(NC(=O)Cn2c(=O)n(Cc3ccc(C(=O)NCc4ccc5c(c4)OCO5)cc3)c(=O)c3ccccc32)c1	0.03
COc1ccc(S(=O)(=O)c2cc3cc(C(C)(C)C)cc(O)c3oc2=O)cc1	-0.6
CCn1c(=O)n(-c2ccc(F)cc2)c(=O)c2sc3ccccc3c21	-0.1
O=C(O)COc1ccccc1C1Nc2ccccc2-c2nnc(SCc3ccc(Cl)cc3)nc2O1 (stereo not given)	-2.39
Cc1ccccc1C1C(C(=O)N(C)CCO)C[C@@](C)(C(=O)O)N1C (stereo not given in full)	0.31
COc1ccc2c(c1)c(CC(=O)Nc1cccc(F)c1C)c(C)n2C(=O)c1ccc(Cl)cc1	-1.82
COc1ccccc1NC(=O)CSc1nc(O)c(C/C=C/c2ccccc2)c(=O)[nH]1	-0.43
CCOCCn1c(=O)[nH]c2cc(C(=O)NCCn3ccnc3)ccc21	0.9
CCc1ccc(C(=O)c2cn(CC(=O)Nc3cccc(OC)c3)c3cc4c(cc3c2=O)OCO4)cc1	0.19
CCCCOC(=O)c1cccc(NC(=O)/C=C/c2ccccc2Cl)c1	1.27
COc1ccccc1C1CN(C(=O)CCc2cccs2)CC1C(=O)O (stereo not given)	-1.93
COc1ccc(-c2cc(-c3ccccc3)nc(SCC(=O)CC(=O)OC(C)C)c2C#N)cc1	0.34
Cc1cc(CC2CN(C(=O)c3ccc(=O)[nH]c3)CC2O)on1 (stereo not given)	-3.57
COc1ccc(C(=O)CCC(=O)NC2COCCC2OC)cc1 (stereo not given)	0.98
COc1cc(C(=O)Nc2sc3c(c2C#N)CCCC3)c(Br)c(OC)c1OC	0.55
O=C(COc1ccc(Cl)cc1)N1CC(CO)C(CN2CCCC2)C1 (stereo not given)	-1.16
CCOC(=O)c1ccc(NC(=O)CCc2c(C)nc3c(c(C)nn3C)c2C)cc1	-1.84
O=c1oc2ccc3ccccc3c2cc1-c1nnc(Nc2ccc(F)cc2)s1	-1
Cc1nc(C(=O)N2CCCN(Cc3noc(C4CC4)n3)CC2)cs1	-0.33
CCc1nc(Nc2ccc(F)c(Cl)c2)c2c3c(sc2n1)CCCC3	0.73
O=C(CN1CCC(N2CC(COc3ccc(F)cc3)OCC2=O)CC1)N1CCCC1 (stereo not given)	-1.83
CCOC(=O)c1c(-c2ccccc2)csc1NC(=O)c1cc(=O)c2ccc(C)cc2o1	-1.5
CCOc1ccc(NC(=O)Cn2cc(C(=O)c3ccc(CC)cc3)c(=O)c3cc4c(cc32)OCO4)cc1	-1.21
Cc1[nH]c2c(c1C(=O)NCCCc1ccccn1)C(=O)CCC2	-0.54
CCN1CCN(CCCNC(=O)c2cc3c(=O)n(CC)c4ccccc4c3s2)CC1	-0.24
CC(Sc1oc(-c2ccco2)nc1S(=O)(=O)c1ccc(Br)cc1)c1ccccc1 (stereo not given)	-1.12
CC(C)NC(=O)CN1CCC(N2CC(COc3ccc(F)cc3)OCC2=O)CC1 (stereo not given)	0.62
CC(=O)O[C@H]1C[C@@H]2CC[C@@H]3[C@H](CC[C@@]4(C)[C@H]3C[C@H]([N+]3(C)CCCCC3)[C@@H]4OC(C)=O)[C@@]2(C)C[C@@H]1[N+]1(C)CCCCC1	-1.89

Four entries drawn at random from those above, as already listed:
Structure	Bm FixLJ act
CCOC(=O)c1ccc(NC(=O)CCc2c(C)nc3c(c(C)nn3C)c2C)cc1	-1.84
CC(C)NC(=O)CN1CCC(N2CC(COc3ccc(F)cc3)OCC2=O)CC1 (stereo not given)	0.62
COc1ccccc1C1CN(C(=O)CCc2cccs2)CC1C(=O)O (stereo not given)	-1.93
CCOC(=O)c1c(-c2ccccc2)csc1NC(=O)c1cc(=O)c2ccc(C)cc2o1	-1.5
